Assay outcomes as filed in PubChem.
Env fusion inh – blocks HIV Env-driven cell-cell fusion; HeLa-JRFL Env/CEM21 cell fusion, luciferase; inhibition, % at 12.3 µM; 360,000 compounds, 1.1% hits; AID 651610;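 active = mean replicate inhibition score of at least 50 and every replicate individually at or above 50; inconclusive = only one of the two criteria met; inactive = mean below 50 and not all replicates reaching 50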;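 note: 0% = plate neutral controls and 100% = maraviroc near 300 nM; one replicate is shown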
MT1-MMP act inh – MT1-MMP (human) activation inhibition; P50281; GFP/RFP ratio change, % at 20 µM; HT1080 RFP-PRO-GFP cells, GFP/RFP ratio fluorescence, overnight; percent of plate control window, DMSO zero; AID 651647; 360,000 compounds, 0.061% hits;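 active = GFP/RFP ratio change of at least 30% with cell ATP level not reduced by more than half and red fluorescence within 50% of control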; note: strong numbers were not always called active
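Assay system – RFP-PRO-GFP reporter HT1080 cells · Compound dosing – single dose of 20 µM compound, 1% DMSO final · Incubation – overnight compound exposure at 37 °C · Measure – GFP/RFP fluorescence ratio · Benchmarks – DMSO wells and RFP-L50D-GFP cells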
Rce1 inhib – blocks yeast Ras-converting enzyme. Q03530. yeast membranes, quenched prenylated peptide cleavage fluorescence. calls only. 290,000 compounds, 0.27% hits. AID 2563;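 active = fall in fluorescence gain of 50% or more versus controls, with final raw signal at or below 3038400; inconclusive = same 50% fall but final raw signal above 3038400; inactive = fall in fluorescence gain under 50%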;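 note: plate controls were neutral control wells for no effect and wells lacking membranes for full effect; tested at 10 µM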
UUG fidelity – yeast start codon fidelity modulation; S. cerevisiae UUG-firefly luciferase reporter, luminescence/redox ratio; activity score, % at 18.7 µM; 350,000 compounds, 0.13% hits; AID 602363;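 active = replicate mean at a twofold rise or more, about +100% in these data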;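 note: firefly luciferase made from a UUG start codon reports start codon fidelity; reporter light over untreated wells divided by growth signal over untreated wells; some hits fall short of that in this replicate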
PABP FP inh – blocks human PABP binding to poly(A) RNA; AID 2014; inhibition, % at 35 µM; fluorescence polarization; P11940; 290,000 compounds, 1% hits;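 active = 50% or more with normal probe brightness, or confirmed in later tests; inconclusive = above 50% with abnormal brightness, or retests that disagree; inactive = below 50% or failed in later tests; about a fifth of its hits are not listed in these tables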;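 note: calls also rest on retests at 20 µM and on dose response follow-up; controls were probe without protein and protein plus probe with vehicle; some compounds called inactive have numbers as strong as hits; many hits fall short of the cut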
Target sequence (P11940 whole entry, looked up): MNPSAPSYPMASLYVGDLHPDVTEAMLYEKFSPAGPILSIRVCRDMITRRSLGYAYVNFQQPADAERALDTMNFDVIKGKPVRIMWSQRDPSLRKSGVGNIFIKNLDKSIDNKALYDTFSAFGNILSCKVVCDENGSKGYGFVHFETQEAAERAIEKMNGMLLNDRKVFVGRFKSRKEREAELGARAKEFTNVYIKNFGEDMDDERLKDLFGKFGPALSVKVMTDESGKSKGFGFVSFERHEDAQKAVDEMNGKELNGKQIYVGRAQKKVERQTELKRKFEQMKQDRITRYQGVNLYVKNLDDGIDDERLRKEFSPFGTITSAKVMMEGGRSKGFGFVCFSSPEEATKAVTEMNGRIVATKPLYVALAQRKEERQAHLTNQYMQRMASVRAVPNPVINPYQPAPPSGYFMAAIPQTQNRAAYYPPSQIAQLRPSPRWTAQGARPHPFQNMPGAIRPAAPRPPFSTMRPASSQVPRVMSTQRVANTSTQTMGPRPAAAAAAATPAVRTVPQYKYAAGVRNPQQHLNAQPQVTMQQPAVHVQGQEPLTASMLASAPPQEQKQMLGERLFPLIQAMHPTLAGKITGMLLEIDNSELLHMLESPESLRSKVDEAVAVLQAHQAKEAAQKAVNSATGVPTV
CSC inhib – blocks cancer stem cells; cancer stem cell-like cells viability, luminescence; inhibition, % at 7.5 µM; 300,000 compounds, 1.1% hits; AID 2717;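 active = mean at 75% or more and at least half the replicates too; inconclusive = mean and replicates disagree; tested in HMLE shEcad cells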;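 note: 0% = median of negative and 100% = median of positive control wells; the first replicate is given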
eIF4H FP inh – inhibitors of RNA binding by human eIF4H; eIF4H fluorescence polarization binding assay; 290,000 compounds, 0.94% hits; inhibition, % at 35 µM; Q15056;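 active = 50% or more with normal probe brightness, or confirmed in later tests; inconclusive = above 50% with abnormal brightness, or retests that disagree; inactive = below 50% or failed in later tests; about a fifth of its hits are not listed in these tables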;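 note: calls also rest on retests at 20 µM and on dose response follow-up; 0% = protein and probe with vehicle and 100% = probe without protein; strong numbers were not always called active; many hits fall short of the cut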
eIF4H FP inh retest – further read-out of eIF4H FP inh, marked with its call; inhibition, %; compound at 20 µM; confirmation average;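 mean of two retest wells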
PABP FP inh retest – further read-out of PABP FP inh, marked with its call; inhibition, %; compound at 20 µM; confirmation repeats;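 mean of two retest wells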
MT1-MMP act inh RFP – recorded beside MT1-MMP act inh, whose call it bears; RFP signal change, %; measured here: RFP expression control read;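 0 = vehicle wells; hits needed this value within 50% of zero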
Active calls of the source: *; i = inactive; ? = inconclusive; / = no result given; + = active, no number.

SMILES	Env fusion inh	MT1-MMP act inh	MT1-MMP act inh RFP	Rce1 inhib	UUG fidelity	PABP FP inh	CSC inhib	eIF4H FP inh	others
CCOc1cc(/C=N/O)cc(Br)c1OCc1ccc(Cl)cc1	32	15	0	i	-8	-7	117*	-1
CCC(=O)Nc1cccc(-n2nnnc2SCC(=O)N2CCCCC2)c1	-2	2	0	/	/	2	10	-5
O=C(CN1CCCCCC1)Nc1cccc(NC(=O)CN2CCCCCC2)c1	-4	5	3	i	-2	5	-10	5
CN(C(=O)c1ccc(OC2CCN(CCc3ccccc3)CC2)cc1)C1CCCCC1	5	3	-1	i	/	-9	15	6
O=C(Cc1cccc(NC(=O)C2CCN(C(=O)c3ccccc3)CC2)c1)Nc1cccc(C(=O)N2CCCCC2)c1	-3	0	2	/	-14	/	/	/
CCCC(C(=O)NC(C)(C)C)N(Cc1ccccc1)C(=O)c1snc(C(N)=O)c1N (stereo not given)	5	1	-1	/	6	/	/	/
COc1cccc(N(C(=O)c2cccs2)c2nc3ccccc3s2)c1	/	-1	-1	i	-14	4	11	-6
O=C(Cn1c(=O)oc2ccc(Cl)cc21)NC1CCCCC1	-6	-3	-4	i	9	4	8	-4
O=C(Nc1ccc(/C=C/c2nc3ccccc3o2)cc1)c1ccc(F)cc1	/	8	-10	i	-18	2	-13	-6
CSCC[C@H](NC(=O)[C@@H]1Cc2ccccc2CN1)C(=O)NC(C)c1ccccc1 (stereo not given in full)	-2	-4	-3	i	-8	-3	-6	-12
Nc1nc(N2CCCCC2)nc(N(c2ccccc2)c2ccccc2)n1	19	0	-1	i	-6	-12	49	-6
Cc1cc(=O)[nH]c(N2CCN(C(c3ccccc3)c3ccccc3)CC2)n1	/	-4	0	i	-4	-3	21	2
N=c1n(Cc2ccccc2)c2ccccc2n1CC(O)COc1ccc(Cl)cc1Cl (stereo not given)	26	-29	-24	i	/	-17	/	-7
O=C(NCCc1ccc(F)cc1)c1ccc2nccnc2c1	/	-5	-1	/	-29	/	-22	/
CCOC(=O)N1CCC(N(CCN(C)C)C(=S)Nc2ccccc2OC)CC1	-55	1	4	i	-13	4	0	-3
O=C(NCCCn1ccnc1)c1cc(C(=O)C2CC2)c[nH]1	7	2	9	i	-16	1	/	-5
COCc1[nH]nc2c1C(c1ccc(OC)cc1)C(C#N)=C(N)O2 (stereo not given)	28	3	-5	i	-28	-3	2	5
O=C(Nc1ccc(Oc2ccc(C(F)(F)F)cn2)c(Cl)c1)C1CC1	9	0	-13	i	/	3	15	-8
Cc1cccc(C)c1N(CC(=O)N1CCCC1)S(C)(=O)=O	-75	1	4	i	-10	3	-15	-7
CCOC(=O)N/N=C/c1ccc(N2CCOCC2)s1	-38	-6	-10	i	-5	21	3	-2
Cc1cccc(NS(=O)(=O)c2ccc(C)c(C(=O)NCC(c3ccco3)N3CCCCC3)c2)c1 (stereo not given)	-2	-3	-2	/	-7	/	/	/
O=C(NC(Cc1ccccc1)c1ccc2c(c1)OCCCO2)c1ccccc1F (stereo not given)	0	-4	-3	i	-23	0	/	-2
Cc1ccc(NCCC(=O)c2ccc(Br)cc2)cc1	-50	3	2	i	-19	-1	-7	2
CCn1cc(C(=O)NCCCOC(C)C)c(=O)c2cc(S(=O)(=O)N3CCOCC3)ccc21	-2	2	8	i	-6	-1	-10	9
Cc1cc(C)cc(S(=O)(=O)c2cnc3ccccc3n2)c1	7	-6	-8	i	/	-2	16	-11
C=CCn1c(SCc2nc(N)nc(N(C)C)n2)nnc1-c1cccnc1	/	1	1	i	/	-5	-13	-6
CCOc1ccc(S(=O)(=O)N(CC)CC(=O)NC2CC2)cc1	7	3	2	i	-14	0	-6	-8
CN1CCOCCOCCN(C)C1=O	-35	2	7	i	-16	-9	9	-5
Cc1ccc(C)c(-c2csc(-c3cccnc3)n2)c1	-86	-2	-4	i	-13	5	18	11
O=C(Cc1cccc(C(F)(F)F)c1)Nc1cccc(S(=O)(=O)N2CCCC2)c1	25	1	-6	i	5	-3	-3	-2

Molecules listed so far that contain a CF3 group (two):
SMILES	Env fusion inh	MT1-MMP act inh	MT1-MMP act inh RFP	Rce1 inhib	UUG fidelity	PABP FP inh	CSC inhib	eIF4H FP inh	others
O=C(Nc1ccc(Oc2ccc(C(F)(F)F)cn2)c(Cl)c1)C1CC1	9	0	-13	i	/	3	15	-8
O=C(Cc1cccc(C(F)(F)F)c1)Nc1cccc(S(=O)(=O)N2CCCC2)c1	25	1	-6	i	5	-3	-3	-2

The list continues.
SMILES	Env fusion inh	MT1-MMP act inh	MT1-MMP act inh RFP	Rce1 inhib	UUG fidelity	PABP FP inh	CSC inhib	eIF4H FP inh	others
CCOc1cc(C(N)=O)cc(Br)c1OCC	/	-15	-7	i	/	3	-16	1
CCCOc1ccc2ccccc2c1/C=N/n1c(C)nnc1-n1nc(C)cc1C	/	-8	-14	i	/	-10	40	-8
CO/N=C(\Cn1ncc(N2CCCC2)c(Cl)c1=O)c1ccc(Cl)cc1	/	7	-5	i	/	-7	-4	9
COc1cc(Cl)cc(/C=N/NC(N)=O)c1O	-70	2	6	i	/	4	-3	-5
O=C(Cn1c(=O)sc2ccccc21)Nc1ccccc1	/	0	3	i	1	0	-7	-4
CCOC(=O)c1cc2c(ccn2C)n1CC(=O)N1CCC(Cc2ccccc2)CC1	/	-3	-3	i	/	42	/	32
Cc1cc(C)n(-c2ccc(C(=O)Nc3nnc(C4CC4)s3)cc2)n1	-18	7	-4	i	-16	-8	-8	-1
COc1ccc(C(C(=O)NCC2CCCO2)N(C(=O)CNC(=O)c2cccs2)c2ccc(NC(C)=O)cc2)cc1OC (stereo not given)	15	-2	1	i	/	-1	-9	0
COc1ccc(-n2c(=O)[nH]cc(C(=O)Nc3ccc4c(c3)OCCO4)c2=O)cc1OC	1	-2	3	i	5	-2	-9	0
CCOc1ccc(S(=O)(=O)Nc2ccccn2)c2ccccc12	/	12	4	i	-11	-6	-11	-7
Cc1ccc2nc(SCC(=O)c3ccc4c(c3)NC(=O)CO4)[nH]c2c1	-6	-1	-2	i	/	-8	-3	-7
CCCN(CCC)CCCNS(=O)(=O)c1ccc2c(c1)oc(=O)n2C	7	12	7	i	-5	24	-18	16
COc1cccc(NC(=O)COc2ccc(C)cc2)c1	/	7	3	/	-6	-4	7	-13
O=S(=O)(NCc1cccnc1)c1cccs1	/	3	2	i	-8	-4	-4	-7
N#Cc1ccccc1S(=O)(=O)N1CCN(C(=O)C2CC(=O)N(c3ccc4c(c3)OCCO4)C2)CC1 (stereo not given)	9	1	-2	/	-34	/	-2	/
Cc1c(Cl)cccc1NC(=O)Cn1c(CCC(=O)O)ccc1-c1ccc(Cl)cc1	-12	8	3	i	-18	-3	-11	4
O=C(Cc1cccc2ccccc12)Nc1ccc(-c2cc3ccccc3oc2=O)cc1	/	3	-7	i	-15	-8	5	-9
Cc1nc2ccccc2cc1OCc1ccc(F)cc1	37	7	-18	i	-4	1	/	-9
COc1ccc(SN=C2C(C)=CC(=O)C=C2C)cc1	-4	-13	-8	i	-13	7	-15	7
CCN(CCC(=O)Nc1ccc(Br)c(C)c1)Cc1ccccc1	/	1	0	i	-1	3	0	1
O=C(c1cccnc1)N(Cc1ccccc1)C(=O)c1cccnc1	-13	-4	2	/	-9	/	/	/
O=C(CN1CCN(C(=O)CCC(=O)N2CCC(c3ccccc3)=N2)CC1)Nc1ccc(F)cc1	-8	1	-7	/	-1	/	/	/
CCOC(=O)c1ccc(N=Cc2c(O)c3ccccc3oc2=O)cc1	-19	1	3	i	/	11	2	38
CCOC(=O)C1(Cc2ccccc2C)CCCN(C(=O)c2ccc(C(C)=O)s2)C1 (stereo not given)	11	3	3	/	2	/	/	/
Nc1n[nH]c(=S)n1-c1ccc(Cl)cc1	-6	4	3	i	-23	9	-4	-6
CC1CCN(C2(O)C(=O)Nc3ccc(Cl)cc32)CC1 (stereo not given)	-18	-4	1	i	-6	-1	/	12
O=C(NCC(c1ccco1)N1CCc2ccccc2C1)C(=O)Nc1cc(F)ccc1F (stereo not given)	0	0	-5	i	1	/	5	/
Cc1ccc(-c2cc(C)nc3nc(N)nn23)cc1	-84	2	1	+	-15	15	-3	7
COc1ccc(C(=O)Nc2nc3ccc(S(C)(=O)=O)cc3s2)cc1	-16	-7	-9	i	-9	?	/	-5
CCOc1ccc(-c2nc(N)ncc2-c2ccc(Cl)cc2)c(O)c1	1	0	-2	i	-16	15	7	-1
CCOc1ccc(-c2nnc(-c3cccs3)o2)cc1	-399	0	-1	i	-38	3	-6	2
CCOC(=O)C1(C)CCCN(C(=O)c2snnc2C)C1 (stereo not given)	14	-1	2	/	0	/	/	/
COc1cc(C)ccc1OCCOCCOc1ccc([N+](=O)[O-])cc1	-2	1	1	i	/	-11	-1	-8
COc1ccc(S(=O)(=O)NCCc2ccccc2)cc1OC	0	5	-2	i	-4	5	-4	0
CCOC(=O)c1sc(SC)c2c1CCC/C2=N/OC	2	-2	4	i	-10	4	16	6
CCCc1cc2c(cc1NC(=O)c1ccc(C)cc1)OCO2	/	-1	0	i	/	-9	10	6
Cc1ccc(OCC(=O)N2C(C)CCCC2C)c([N+](=O)[O-])n1 (stereo not given)	/	1	-1	/	9	/	-4	/
O=C(COc1ccc2ccccc2c1)N1CCNCC1	11	5	8	i	-15	-9	/	-10
Cc1nnc(NC(=O)Cn2cnc3c2c(=O)n(C)c(=O)n3C)s1	-88	6	2	i	-17	6	-3	-6
CCc1ccc(NC(=O)C(=O)NNC(=O)c2ccc(OC)cc2)cc1	5	5	3	i	-18	5	/	6
CCOC(=O)c1sc(N2C(=O)C(O)=C(C(=O)c3ccco3)C2c2ccc([N+](=O)[O-])cc2)nc1C (stereo not given)	44	7	-1	i	9	3	3	14
O=C(NC(=S)NCC1CCCO1)C(c1ccccc1)c1ccccc1 (stereo not given)	-16	-7	-6	i	/	7	-12	-3
Cc1ccc(-c2nnc(SCC(=O)NC3CCS(=O)(=O)C3)nc2-c2ccc(C)cc2)cc1 (stereo not given)	11	-4	-2	i	/	10	-11	-2
CCOC(=O)N1CCC(Nc2c(NCCCOC)c(=O)c2=O)CC1	-43	-1	7	i	-18	-12	/	-8
Cc1c(C#N)c(N=CN(C)C)c(C(=O)c2ccccc2)n1-c1ccccc1	/	3	2	i	-7	-8	0	-1
COc1ccc(S(=O)(=O)NNC(=O)Nc2ccc(F)cc2)cc1	3	1	4	i	-18	/	11	/
O=C(NCc1ccc(N2CCCC2=O)cc1)NC1CCCCC1	/	5	3	i	-10	4	5	1
S=C(NCCc1ccccc1)N1CCN(C(c2ccccc2)c2ccccc2)CC1	/	-12	-11	i	-17	-5	-1	2
Nc1c(-c2ccccc2)c(CSc2nc3ccccc3[nH]2)nn1-c1cccc(Cl)c1	-3	-15	-17	i	/	10	17	14
Cc1cccc(NC(=O)CNC(=O)c2cc(S(=O)(=O)N(C)C)ccc2N2CCCC2)c1C	-18	1	2	/	-17	/	/	/
Cc1cccc(C(=O)Nc2ccc(C(=O)N/N=C/c3cccc(C)n3)cc2)c1	5	7	8	i	-14	10	/	-2
Cc1cc(NC(=O)C2CCCCC2C(=O)O)ccc1NC(=O)c1ccccc1 (stereo not given)	-29	5	7	i	-1	10	10	62	eIF4H FP inh retest=-8;PABP FP inh retest=1
